ERG Ets-DNA blk: ERG Ets/DNA interaction inhibition | Potency, µM (highest dose often 76.9 µM), for the others: at the highest dose FP activity, negative = inhibition, actives largely listed as inhibitors | AID 624246 | hit rate 0.028% among 370,000 | fluorescence polarization, His-ERG Ets domain / labelled DNA; active means well fitted inhibition curve with a large enough effect in the polarisation, with a control signal flat; inconclusive means small, poorly fitted or top-dose-only effect, or effect the other way, or a change in a side signal; inactive means no such curve, though single readings can be large or run the other way; the % refers to the polarisation;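 further: polarization taken with two DNA probes labelled with fluorescein and Texas red; % of control where 0% means no effect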
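His-tagged ERG Ets domain (1 uM in the protein solution; 300mM KCl, 50mM Tris-HCl, 1mM EDTA, 1mM DTT, pH 7.5) received compound, then a probe mix of 5 nM fluorescein-DNA and 100nM Texas-615-DNA. Fluorescence polarization was read for both dyes.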
APEX1 inh: inhibitors of human APE1 endonuclease | P27695 | recombinant APE1, TAMRA/BHQ-2 abasic DNA cleavage fluorescence | Potency, µM (highest dose often 65.8 µM), inactives show at the highest dose activity change, negative = inhibition, most hits filed as inhibitors | hit rate 0.35% among 350,000 | AID 2517;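 further: plate controls were vehicle for no effect and reference inhibitor for full effect; nearly all actives have a fitted effect of over 55% in size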
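Step 1: APE1 (0.75 nM) with compound, 15 min RT. Step 2: add 50 nM fluorophore/quencher THF duplex. Step 3: three fluorescence reads 60 s apart (525/598 nm); read 3 minus read 1 = reaction progress.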
ALOX12 inh: ALOX12 (human) lipoxygenase inhibition; Potency, µM (highest dose often 108 µM), for inactives: at the top dose activity change, negative = inhibition, most hits filed as inhibitors; AID 1671190; P18054; purified 12hLO, xylenol orange hydroperoxide absorbance; hit rate 1.1% among 580,000; further: on the % scale 0 is the no-effect control and ±100 the full control effect
Target sequence (P18054 whole entry, looked up): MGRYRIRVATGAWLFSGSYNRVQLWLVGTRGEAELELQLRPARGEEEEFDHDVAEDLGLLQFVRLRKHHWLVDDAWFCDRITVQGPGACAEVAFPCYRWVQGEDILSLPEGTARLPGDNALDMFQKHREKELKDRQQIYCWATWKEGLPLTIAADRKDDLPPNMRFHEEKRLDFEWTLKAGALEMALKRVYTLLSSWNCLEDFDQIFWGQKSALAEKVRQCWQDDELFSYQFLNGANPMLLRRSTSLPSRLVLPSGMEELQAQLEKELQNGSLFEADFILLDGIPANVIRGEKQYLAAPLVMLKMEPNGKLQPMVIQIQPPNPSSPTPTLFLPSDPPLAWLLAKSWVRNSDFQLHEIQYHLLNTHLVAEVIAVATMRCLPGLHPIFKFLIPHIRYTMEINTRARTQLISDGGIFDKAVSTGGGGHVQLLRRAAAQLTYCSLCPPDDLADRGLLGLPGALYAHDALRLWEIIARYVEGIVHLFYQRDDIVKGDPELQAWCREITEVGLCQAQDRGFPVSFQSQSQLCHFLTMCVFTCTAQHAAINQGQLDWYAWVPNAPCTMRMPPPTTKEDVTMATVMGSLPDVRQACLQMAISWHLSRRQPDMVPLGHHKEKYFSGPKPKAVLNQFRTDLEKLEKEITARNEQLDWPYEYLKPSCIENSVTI
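Purified human 12hLO at 150 nM in 25 mM Hepes, 0.01% Triton X-100, pH 7.0, preincubated 15 min at room temperature with compound. Reaction started with 40 uM arachidonic acid, 30 min at room temperature. Hydroperoxide measured by Fe-xylenol orange, 573/405 nm absorbance ratio.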
Pol beta inh: DNA polymerase beta (human) inhibition; P06746; Pol beta primer extension/strand displacement, fluorescence kinetic; Potency, µM (series often up to 114 µM), for inactives: at the highest dose activity change, negative = inhibition, hits mostly inhibitors; hit rate 1.3% among 340,000; AID 485314; further: on the % scale 0 is the no-effect control and ±100 the full control effect
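Homogeneous kinetic assay of primer extension and strand displacement by 10 nM Pol beta, preincubated 15 min at room temperature with compound before 50 nM substrate (final) was added. Read at 0 and 10 min; four-parameter Hill fit.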
POLK inh: blocks human DNA polymerase kappa activity; Q9UBT6; purified Pol kappa, fluorescent DNA synthesis assay, 10 min; Potency, µM (series often up to 107 µM), for the others: at the top dose activity, negative = inhibition, usual class: inhibitors; hit rate 0.53% among 400,000; further: on the % scale 0 is the no-effect control and ±100 the full control effect
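Inhibition of 10 nM Pol kappa is measured by a fluorescent read-out at 0 and 10 min following addition of 50 nM substrate (final), with a 15-min room-temperature compound preincubation.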
* hit, by the source's call; ? = inconclusive; · = not tested or not shown; & = joins results of further samples; [ ] = dose if it differs, or a comment. Unless noted, the call rests on the fitted dose curve; in most records, active means well fitted curve in the direction sought with a large enough effect; inconclusive means small, poorly fitted or top-dose-only effect, or another doubt; inactive means no such curve, though single readings can be large; an effect the other way counts as inactive or inconclusive. Potency means the concentration at half of the fitted maximal effect. The list is partial. The share of hits here may be higher or lower than overall.

cpd | SMILES | ERG Ets-DNA blk | APEX1 inh | ALOX12 inh
1 | CC[C@@H](C)[C@H]1O[C@]2(CC[C@@H]1C)C[C@@H]1C[C@@H](C/C=C(\C)[C@@H](O[C@H]3C[C@H](OC)[C@@H](O[C@H]4C[C@H](OC)[C@@H](O)[C@H](C)O4)[C@H](C)O3)[C@@H](C)/C=C/C=C3\CO[C@@H]4[C@H](O)C(C)=C[C@@H](C(=O)O1)[C@]34O)O2 | · | 0.2% | ·
2 | Nc1ccn([C@@H]2O[C@H](CO)[C@@H](O)[C@@H]2O)c(=O)n1 | 1.6% | 1.5%&-3.2% | -15.6%
3 | COc1ccccc1C(=O)NNC(=S)NC(=O)c1ccco1 | -11.7% | 7.6% | -29.6%
4 | C[C@@H]1C[C@H]2[C@@H]3CCC4=CC(=O)C=C[C@]4(C)[C@@]3(F)[C@@H](O)C[C@]2(C)[C@@]1(O)C(=O)CO | 7.8%&-10.7% | 43.9%&9.5%&-3.2%&14.9%&-3.6% | 4.8%
5 | CN(C)C(=O)c1cccc(COc2ccc(N3C(N)=NC(N)=NC3(C)C)cc2Cl)c1 | · | · | 3.3%
6 | CO[C@H]1C=CO[C@]2(C)Oc3c(C)c(O)c4c(O)c(c5c(c4c3C2=O)NC2(CCN(CC(C)C)CC2)N=5)=NC(=O)C(C)=CC=C[C@@H](C)[C@@H](O)[C@@H](C)[C@@H](O)[C@@H](C)[C@@H](OC(C)=O)[C@@H]1C | · | 2.2%[21 µM] | ·
7 | CCN(CC)c1ccc2cc(C(=O)O)c(=O)oc2c1 | -3.9% | -8.9% | -17.7%
8 | CC(C)(C)c1ccc(-n2ncc3c2CCCC3NC(=O)CCN2CCCC2=O)cc1 (centres undefined) | 2.3% | 45.6%[activator] | -4.4%
9 | CO[C@H]1/C=C/O[C@@]2(C)Oc3c(C)c(O)c4c(O)c(c5c(c4c3C2=O)NC2(CCN(CC(C)C)CC2)N=5)=NC(=O)/C(C)=C\C=C\[C@H](C)[C@H](O)[C@@H](C)[C@@H](O)[C@@H](C)[C@H](OC(C)=O)[C@@H]1C | 1.2% | -2.7% | -11.4%
10 | Clc1ccc2nsnc2c1NC1=NCCN1 | -7.8%&-11.7% | 2.8%&1.2%&10.1% | -2.4%[57.4 µM]
11 | C[C@]12CCC(=O)C=C1CC[C@@H]1[C@@H]2C(=O)C[C@@]2(C)[C@H]1CC[C@]2(O)C(=O)CO | 18.8% | -3.2%&-8.2%&0.7%&1.5% | 27.8%
12 | CN[C@H]1CC[C@@H](c2ccc(Cl)c(Cl)c2)c2ccccc21 | -10.2%&-2.7% | -10.4%&-3.8%&-0.8%&4.2%&4.2% | ?

cpd | Pol beta inh | POLK inh
1 | ? | ·
2 | ? | -7.9%
3 | 13.7%[57.1 µM] | -1.8%
4 | · | -2.4%
5 | · | ·
6 | · | -6.5%[12 µM]
7 | -1.9% | -1.8%
8 | -0.7% | -7.0%
9 | · | -2.5%
10 | · | 2.6%[60.1 µM]
11 | 7.1% | -6.9%[60.1 µM]
12 | 3.7% | -15.3%[60.1 µM]

Copied from the list:
POLK inh, no. 6 : -6.5%[12 µM]
APEX1 inh, no. 9 : -2.7%

Some of these compounds in order of length of the SMILES, smallest number first.
cpd | SMILES | ERG Ets-DNA blk | APEX1 inh | ALOX12 inh
8 | CC(C)(C)c1ccc(-n2ncc3c2CCCC3NC(=O)CCN2CCCC2=O)cc1 (centres undefined) | 2.3% | 45.6%[activator] | -4.4%
4 | C[C@@H]1C[C@H]2[C@@H]3CCC4=CC(=O)C=C[C@]4(C)[C@@]3(F)[C@@H](O)C[C@]2(C)[C@@]1(O)C(=O)CO | 7.8%&-10.7% | 43.9%&9.5%&-3.2%&14.9%&-3.6% | 4.8%
1 | CC[C@@H](C)[C@H]1O[C@]2(CC[C@@H]1C)C[C@@H]1C[C@@H](C/C=C(\C)[C@@H](O[C@H]3C[C@H](OC)[C@@H](O[C@H]4C[C@H](OC)[C@@H](O)[C@H](C)O4)[C@H](C)O3)[C@@H](C)/C=C/C=C3\CO[C@@H]4[C@H](O)C(C)=C[C@@H](C(=O)O1)[C@]34O)O2 | · | 0.2% | ·

cpd | Pol beta inh | POLK inh
8 | -0.7% | -7.0%
4 | · | -2.4%
1 | ? | ·

Some of these compounds in order of the POLK inh value, lowest first.
cpd | SMILES | ERG Ets-DNA blk | APEX1 inh | ALOX12 inh
2 | Nc1ccn([C@@H]2O[C@H](CO)[C@@H](O)[C@@H]2O)c(=O)n1 | 1.6% | 1.5%&-3.2% | -15.6%
4 | C[C@@H]1C[C@H]2[C@@H]3CCC4=CC(=O)C=C[C@]4(C)[C@@]3(F)[C@@H](O)C[C@]2(C)[C@@]1(O)C(=O)CO | 7.8%&-10.7% | 43.9%&9.5%&-3.2%&14.9%&-3.6% | 4.8%
7 | CCN(CC)c1ccc2cc(C(=O)O)c(=O)oc2c1 | -3.9% | -8.9% | -17.7%

cpd | Pol beta inh | POLK inh
2 | ? | -7.9%
4 | · | -2.4%
7 | -1.9% | -1.8%

Values by screen from the entries so far.
ALOX12 inh, nos. 1–10, in order: ·, -15.6%, -29.6%, 4.8%, 3.3%, ·, -17.7%, -4.4%, -11.4%, -2.4%[57.4 µM]
POLK inh, nos. 1–10, in order: ·, -7.9%, -1.8%, -2.4%, ·, -6.5%[12 µM], -1.8%, -7.0%, -2.5%, 2.6%[60.1 µM]
